Screening data from PubChem.
Mtb bLac sens = beta-lactam sensitization of Mtb H37Rv. M. tuberculosis H37Rv growth with meropenem, percent inhibition; hits of this screen are not shown here. inhibition, % at 25 µM. actives 0.27% (n = 330,000). AID 434955;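 active means about 74% or more and at least 40 points above the plate without the antibiotic, then above 30% in a dose series; inconclusive means first-round hits that could not be retested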;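 further: growth measured after seven days incubation then overnight dye step; 0% = bacteria only wells and 100% = bacteria with antibiotic; twin plates without the antibiotic show which effects depend on it; some results filed as inactive read as strong as hits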
Mtb H37Rv = M. tuberculosis H37Rv growth inhibitors, H37Rv strain (AID 1626); M. tuberculosis H37Rv growth inhibition; higher % means a stronger effect; one-dose inhibition, % at 10 µM; IC50 in µM for titrated hits; actives 0.95% (n = 220,000);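 active means confirmed in a dose series; inconclusive means inhibition above 80% but not taken into the dose series; inactive means below 80% or under 30% at every dose of the series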;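 further: bacteria incubated seven days before Alamar blue readout; 0% = bacteria only wells and 100% = bacteria with antibiotic wells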
RecA intein inh = inhibitors of M. tuberculosis RecA intein splicing | P9WHJ3 | cell-free RecA intein splicing, fluorescence | inhibition, %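 (about 9 µM by stock and volumes)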 | actives 0.75% (n = 290,000) | AID 2221; in the data active means inhibition above about 30%; inconclusive means no clear call, values can overlap the other calls;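 further: 0% = vehicle wells and 100% = reference inhibitor control wells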
Target sequence (P9WHJ3 whole entry, looked up): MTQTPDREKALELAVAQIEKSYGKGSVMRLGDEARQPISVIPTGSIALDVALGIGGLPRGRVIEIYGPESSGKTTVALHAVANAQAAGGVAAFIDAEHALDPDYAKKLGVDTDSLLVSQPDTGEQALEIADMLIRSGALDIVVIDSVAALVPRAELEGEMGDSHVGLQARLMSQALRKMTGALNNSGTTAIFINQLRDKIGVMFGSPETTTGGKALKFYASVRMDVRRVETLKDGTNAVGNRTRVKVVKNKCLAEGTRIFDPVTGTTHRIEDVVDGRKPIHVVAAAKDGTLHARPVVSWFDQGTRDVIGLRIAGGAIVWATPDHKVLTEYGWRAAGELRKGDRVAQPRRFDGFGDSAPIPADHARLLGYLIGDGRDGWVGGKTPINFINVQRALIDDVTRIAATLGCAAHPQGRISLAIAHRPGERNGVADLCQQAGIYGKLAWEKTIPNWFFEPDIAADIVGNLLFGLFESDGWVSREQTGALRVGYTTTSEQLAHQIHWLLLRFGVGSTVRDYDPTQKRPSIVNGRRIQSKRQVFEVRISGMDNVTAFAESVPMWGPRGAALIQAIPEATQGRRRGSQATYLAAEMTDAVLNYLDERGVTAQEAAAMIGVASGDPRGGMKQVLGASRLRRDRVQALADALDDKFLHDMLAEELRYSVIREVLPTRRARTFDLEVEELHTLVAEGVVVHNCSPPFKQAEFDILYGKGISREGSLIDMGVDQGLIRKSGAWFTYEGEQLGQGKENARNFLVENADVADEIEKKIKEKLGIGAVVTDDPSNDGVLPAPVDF
YopH inh = YopH (Yersinia) phosphatase inhibition. fluorescence Ex485/Em525. inhibition, %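 (about 10 µM by stock and volumes)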. actives 0.16% (n = 140,000). AID 898;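 active means inhibition of 50% or more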;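 further: controls were vehicle for no effect and minimum signal wells for full effect; inactives centre near -20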
Arbovirus inh = blocks arbovirus infection; arbovirus infection cell-based antiviral screen; inhibition, % at 10 µM; actives 0.37% (n = 200,000); AID 1251;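 active means inhibition from about 30%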;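 further: bluetongue infection of BSR cells; cell survival read as ATP light after 72 h; 0% = infected wells without compound and 100% = uninfected wells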
Arbovirus inh repeat = second read-out of Arbovirus inh, no call of its own (marks repeat the call); inhibition, %; measured here: 10K subset replicate screen; many hits read low in the repeat;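 first of two repeat runs on a subset; 0% = infected and 100% = uninfected wells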
An asterisk follows results filed as active; ? = inconclusive; · = not tested or not shown.

SMILES	Mtb bLac sens	Mtb H37Rv	RecA intein inh	YopH inh	Arbovirus inh	others
CCOC(=O)COc1ccc([N+](=O)[O-])cc1	7.3	7.6%	-1.4	2.9	7.5
CCCOc1ccc(C(=O)NCCN2CCOCC2)cc1	3.1	·	-0.6	·	·
CN1CCN(Cc2nc3ccccc3c(=O)n2Cc2nc(-c3ccc([N+](=O)[O-])cc3)cs2)CC1	-3.5	-3.7%	20.1	-12.3	-28.1
N#C/C(=C\c1ccccc1C(F)(F)F)C(=O)Nc1ccccc1F	3.8	-5.8%	1.2	-32.9	-4.3
Cc1nc2c(c(C)nn2-c2ccccc2)c(C)c1CCC(=O)N1CCC2(CC1)OCCO2	-1.2	6.1%	0.4	0.8	-2.6
Cc1ccc(NC(=O)COC(=O)c2cccc3c(=O)c(C)c(-c4ccccc4)oc23)cc1	-6.7	0.0%	-3.8	-21.2	9.5
CC(C)c1ccc(NC(=O)CSc2nc(=O)n(CCCN3CCOCC3)c3c2CCCC3)cc1	-5.4	·	-0.2	·	·
Nc1ncnc2c1ncn2CCNCCc1ccccc1	-13.1	-4.2%	1.4	-20.8	-6.7
Cc1ccc(S(=O)(=O)Cn2nnnc2C(CC(C)C)N2CCN(c3ccccc3)CC2)cc1 (stereo not drawn)	-9.5	4.3%	-2.5	-15.2	-8.8
CCOC(=O)C1(CCc2ccccc2)CCN(Cc2csc(C(C)=O)c2)CC1	-7.2	-0.8%	0.5	·	9.2
Nc1ncnc2c1ncn2[C@@H]1O[C@H](COP(=O)(O)O)[C@@H](O)[C@H]1O	1.6	·	1.5	·	·
COc1ccc(CC(NC(C)=O)C(=O)NC2CCN(c3c(Cc4ccccc4)c(C)nc4ncnn34)CC2)c(OC)c1 (stereo not drawn)	-8.1	-4.2%	2.4	·	-5.2
Cc1onc(-c2ccccc2Cl)c1C(=O)NC(=S)Nc1ccccc1C(N)=O	2.7	-0.5%	8.9	-11.9	3.3
COc1ccc(N=Cc2c(O)[nH]c3ccccc23)cc1	5.1	-4.0%	-2.5	0.4	5.5
CCOc1ccc(Br)cc1CNc1ccc2c(c1)OCCO2	-5.8	19.1%	7.8	·	1.6

Looked up one by one from the list above:
SMILES	Mtb bLac sens	Mtb H37Rv	RecA intein inh	YopH inh	Arbovirus inh	others
COc1ccc(CC(NC(C)=O)C(=O)NC2CCN(c3c(Cc4ccccc4)c(C)nc4ncnn34)CC2)c(OC)c1 (stereo not drawn)	-8.1	-4.2%	2.4	·	-5.2
CCOC(=O)COc1ccc([N+](=O)[O-])cc1	7.3	7.6%	-1.4	2.9	7.5
CC(C)c1ccc(NC(=O)CSc2nc(=O)n(CCCN3CCOCC3)c3c2CCCC3)cc1	-5.4	·	-0.2	·	·
N#C/C(=C\c1ccccc1C(F)(F)F)C(=O)Nc1ccccc1F	3.8	-5.8%	1.2	-32.9	-4.3
CCOC(=O)C1(CCc2ccccc2)CCN(Cc2csc(C(C)=O)c2)CC1	-7.2	-0.8%	0.5	·	9.2
Cc1onc(-c2ccccc2Cl)c1C(=O)NC(=S)Nc1ccccc1C(N)=O	2.7	-0.5%	8.9	-11.9	3.3

Later entries:
SMILES	Mtb bLac sens	Mtb H37Rv	RecA intein inh	YopH inh	Arbovirus inh	others
CCOc1nc(C)ccc1-c1noc(-c2ccco2)n1	10.1	4.3%	2.2	-2.1	3.1
COCC(C)NC(=O)/C(=C/c1ccccc1)c1ccccc1 (stereo not drawn)	-6.0	3.1%	-0.7	·	0.2
O=C(Cc1n[nH]c(=O)c2ccccc12)OCC(=O)c1ccc(OC(F)F)cc1OC(F)F	-7.2	·	-3.9	·	·
Cc1ccccc1Nc1scc(-c2ccc(Br)cc2)[n+]1-c1ccccc1C	14.1	8.6%	1.3	·	15.8
COc1cc(NC(=O)COc2ccccc2C)ccc1NC(=O)c1ccco1	0.9	·	-0.7	·	·
Cn1c(N)c(C(=O)COC(=O)CCCc2c[nH]c3ccccc23)c(=O)n(C)c1=O	-5.6	-7.4%	1.4	-28.2	-1.7
O=C(NCc1ccccc1)c1ccc(Cl)c(NC2=NC3CS(=O)(=O)CC3S2)c1 (stereo not drawn)	3.6	·	1.0	·	·
CC(NC(=O)CN1CCN(c2ccccc2F)CC1)c1ccccc1 (stereo not drawn)	1.1	·	0.9	·	·
CSCCC(N=C1NS(=O)(=O)c2ccccc21)C(=O)NCCc1ccccc1 (stereo not drawn)	-11.3	·	6.5	·	·
O=C(COC(=O)c1ccccc1SCC(=O)N1CCCC1)NCc1ccccc1	-7.6	·	-4.5	·	·
CCNC(=O)COn1c(SCC(=O)NCC)nc2ccccc2c1=O	?	-12.8%	-3.3	-22.3	4.8
Cn1c2ccccc2c(=O)c2c(=O)n(Cc3ccco3)c(-c3ccc(F)cc3)nc21	15.0	3.2%	-2.4	·	·
CC(C)c1nc(-c2c(N)n(C)c(=O)n(C)c2=O)sc1C(=O)C(C)(C)C	-1.1	2.4%	-1.3	-42.7	1.9
C=CCN(CC=C)C(=S)Nc1ccccc1	?	-0.8%	-3.4	-20.7	7.6
Cc1cc(-c2ccc(C)c(S(=O)(=O)NCC3CCN(Cc4ccc(F)cc4)CC3)c2)on1	2.8	·	3.7	·	·
Cc1c(NC(=O)/C(C#N)=C/c2ccc(-c3ccc(Cl)c(Cl)c3)o2)c(=O)n(-c2ccccc2)n1C	-7.2	?	-1.7	6.6	8.8
CC(NC(=O)CNC(=O)c1cccc(Cl)c1)c1ccccc1 (stereo not drawn)	12.7	·	1.7	·	·
Cc1ccccc1C1=NC(C(F)(F)F)(C(F)(F)F)c2c(n(C)c(=O)n(C)c2=O)N1	-0.7	-0.9%	0.6	-21.6	0.7
COc1ccc(-c2csc(NC(=O)COc3ccc(N(C)S(=O)(=O)c4ccc(C)cc4)cc3)n2)cc1	-7.5	3.9%	0.7	-27.7	13.8
FC(F)(F)c1cc(C(F)(F)F)c2ccc(N3CCN(c4ccc(Cl)cc4)CC3)nc2n1	3.2	3.0%	-2.7	-27.8	-7.6
C(C#CCCCCCCCCC[n+]1ccccc1)#CCCCCCCCCC[n+]1ccccc1	100.0	·	5.3	·	·
Cc1nc2ncnn2c(C)c1CCC(=O)NCCC1=CCCCC1	0.8	-18.4%	-1.5	-29.1	0.6
O=C(c1ccc2nc(-c3ccco3)c(-c3ccco3)nc2c1)N1CCN(c2ncccn2)CC1	3.6	1.1%	-17.5	6.7	0.4
N/C(=N\N=C\c1ccc2c(c1)OCO2)c1nonc1N	-2.8	3.2%	-1.1	-26.8	-4.7
COc1ccc(C2(C(=O)NCC3CCCO3)CCOCC2)cc1 (stereo not drawn)	-5.5	-6.3%	-0.1	-32.1	1.1
O=C(N/N=C/c1ccc([N+](=O)[O-])cc1)c1ccc2nc[nH]c2c1	-5.9	-0.5%	2.0	-28.3	1.7
Cc1nonc1N1CCN(Cc2cn[nH]c2-c2ccc(F)cc2F)CC1	-1.2	-5.6%	1.8	·	1.8
CC(=O)c1cccc(NC(=O)C(C)OC(=O)CCN=C2NS(=O)(=O)c3ccccc32)c1 (stereo not drawn)	-10.2	·	-6.0	·	·
COc1ccc(OCC(=O)Nc2c(C(=O)N3CCN(C)CC3)oc3ccccc23)cc1	-6.9	·	-1.1	·	·
CN1CCCC(OC(=O)c2cccc(S(=O)(=O)N3CCCCCC3)c2)C1 (stereo not drawn)	-6.6	-3.9%	2.9	·	·
C=CCn1c(SCc2c(C)noc2C)nc2sc(C)c(C)c2c1=O	-4.9	14.2%	3.6	-8.2	-2.4
C=CCN(c1nc(C)cc(OC)n1)S(=O)(=O)c1ccccc1	-5.8	·	2.6	·	·
CCCCCCC(=O)NCC(=O)OCC(=O)c1ccccc1	-4.2	4.6%	-3.2	-27.6	-3.7
CC(=O)N1c2c(cc(Br)cc2S(=O)(=O)NCC2COc3ccccc3O2)CC1C (stereo not drawn)	0.5	11.6%	·	-121.7	0.8	Arbovirus inh repeat=7.1
COC(=O)C1SCC2C(=O)N(Cc3ccc(F)cc3)CC(=O)N21 (stereo not drawn)	-1.6	0.7%	-2.3	·	1.4
C=CCc1cccc2cc(C(=O)N3CCOCC3)c(=O)oc12	-4.4	·	1.6	·	·
O=C(NC(NNc1ccc([N+](=O)[O-])cc1)(C(F)(F)F)C(F)(F)F)c1ccc(Cl)cc1	-2.7	-3.2%	7.8	-13.8	-20.3
COc1ccc(NC2=C(C(C)=O)C(c3ccc(OC)cc3)C(C(C)=O)C(C)(O)C2)cc1 (stereo not drawn)	-10.0	?	-6.2	·	-11.4
COc1cc(CNc2ccc(CNc3ncn[nH]3)cc2)ccc1OCC(=O)NC(C)(C)C	10.8	9.9%	-0.5	-4.2	1.9
Cc1ccc(S(=O)(=O)N2CCN(Cc3cccnc3)CC2)cc1	-9.7	·	-3.2	·	·
CC1CCCN(c2ccc(C(=O)Nc3ccc4c(c3)OCO4)cc2[N+](=O)[O-])C1 (stereo not drawn)	78.3	12.8%	7.7	-39.3	-24.8
CCN(CC)S(=O)(=O)c1cccc(-c2nnc(SC(C)C(=O)NCCC3=CCCCC3)o2)c1 (stereo not drawn)	-3.8	-4.5%	5.9	-20.5	-6.5
O=C1NCCN(Cc2ccc(-c3ccccc3)cc2)C1CC(=O)N1CCN(CCO)CC1 (stereo not drawn)	-2.6	-6.5%	-1.1	·	9.5
CN1C=CC(=C2C(=O)c3ccccc3C2=O)C=C1	·	-6.3%	-0.1	-29.4	-2.0
O=C(COC(=O)C1CCCCC1)Nc1ccc(S(=O)(=O)N2CCOCC2)cc1	-12.8	1.3%	-0.3	·	18.0
O=C(NCC1COc2ccccc2O1)c1ccc(NC(=O)C2CCCO2)cc1 (stereo not drawn)	-3.3	-1.1%	·	-17.6	7.2	Arbovirus inh repeat=0.8
CN1CCN(C(=O)/C(=C/c2ccc([N+](=O)[O-])cc2)NC(=O)c2ccccc2)CC1	1.4	·	1.8	·	·
COc1cccc(-c2noc(C3CCCN(C(=O)Cc4ccccc4)C3)n2)c1 (stereo not drawn)	-5.3	6.7%	4.6	8.3	-11.4
Cc1ccccc1CC(=O)N(CCN(C)C)CC1CCCN(Cc2ccccc2F)C1 (stereo not drawn)	-6.1	·	-2.1	·	·
N#Cc1ccccc1OCCCN1CCC(Cc2ccccc2)CC1	0.5	·	2.0	·	·
Cn1cccc1/C=N/NC(=O)c1ccncc1	98.8	?	-6.8	·	·
O=C(CN1C(=O)C(=O)N(Cc2ccccc2)C1=O)Nc1cc(Cl)cc(Cl)c1	-3.4	-6.8%	2.3	·	·
CC(NC(=O)OC(C)(C)C)C(=O)NC(CCC(=O)OCc1ccccc1)C(N)=O (stereo not drawn)	5.0	8.8%	-2.0	·	-0.8
O=[N+]([O-])CC(c1ccccc1)c1c[nH]c2ccccc12 (stereo not drawn)	2.3	·	3.2	·	·
COc1ccc(NC(=O)Cn2nc(C(=O)O)c3ccccc3c2=O)cc1Cl	10.7	·	-0.4	·	·
Cc1ccc(-c2nc(CS(=O)CC(=O)NC(C)CCc3ccccc3)c(C)o2)cc1 (stereo not drawn)	6.1	·	-0.9	·	·
NC(=O)NC(=O)COC(=O)CNS(=O)(=O)c1ccc(F)c(F)c1F	-1.8	-1.1%	0.4	·	·
Cc1ccc(C(=O)C(C)OC(=O)c2ccc(Cl)nc2)cc1 (stereo not drawn)	-0.4	·	-7.1	·	·
CC(=O)n1cc(N(C(=O)CCl)c2ccc(C)cc2)c2ccccc21	98.8	4.64µM*	91.2*	·	·
CCOC(=O)C1=C(c2ccccc2)NC(=S)NC1c1ccc(C)c([N+](=O)[O-])c1 (stereo not drawn)	4.8	0.0%	-0.1	-6.9	3.1

(next part)
SMILES	Mtb bLac sens	Mtb H37Rv	RecA intein inh	YopH inh	Arbovirus inh	others
Cc1cc(=O)[nH]c(SCc2cccc3cccnc23)n1	-0.7	0.7%	2.5	·	0.7
CSC1=NNC(c2ccc(C(C)(C)C)cc2)=NN1	3.9	6.3%	0.7	·	·
C=C(C)CN1C(=O)C(=O)N(CC(=C)C)C1=O	-6.0	-5.5%	1.0	·	·
O=c1c2c(-c3ccc([N+](=O)[O-])cc3)csc2nc2n1CCCCC2	-2.8	6.8%	-2.6	·	-2.3
CCOC(=O)C1(Cc2ccccc2Cl)CCN(C(=O)CCn2ccnc2C)CC1	11.7	3.5%	1.4	·	4.4
Cn1c(CSCc2ccc(F)cc2)nnc1SCC(=O)N1CCN(c2ccccc2)CC1	-15.2	-3.1%	-0.8	-39.3	-1.3
CC(C)CN1CCN(Cc2ccccc2C(F)(F)F)CC1CCO (stereo not drawn)	0.9	-3.0%	1.2	·	-12.8
CC(C)=C1C2CCC1C1C(=O)N(c3nc(-c4ccc(C(C)C)cc4)c(C)s3)C(=O)C21 (stereo not drawn)	-1.0	10.7%	4.5	-36.1	-15.5
COCCCNC(=O)CN(c1cccc(Cl)c1)S(C)(=O)=O	18.8	-5.0%	1.1	-17.2	-0.7

Not all compounds are listed. The share of hits here may be higher or lower than overall.
